# BRCT inh red = disrupts BRCA1 BRCT binding to phosphoprotein, red fluorophore readout | P38398 | BRCT-phosphopeptide binding, red fluorescence polarization | Potency, µM (series often up to 76.9 µM), without a hit: at the highest dose activity change, negative = inhibition, actives largely listed as inhibitors | 0.03% of 75,000 active | AID 892; further: on the % scale 0 is the no-effect control and ±100 the full control effect
#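 Fluorescence polarization: 100 nM His-tagged BRCA1 BRCT with 100 nM TAMRA-labelled phospho-BACH1 decapeptide, phosphate buffer pH 7.3 with 150 mM NaCl, DTT, 0.01% Tween 20; 12 min RT. Binding inhibition seen as FP decrease.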
# USP2a inh = inhibitors of human ubiquitin-specific protease USP2a; O75604; USP2a enzymatic assay, qHTS inhibition; Potency, µM (top dose mostly 38.3 µM), for the others: at the highest dose activity change, negative = inhibition, usual class: inhibitors; 0.1% of 60,000 active; AID 927;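 further: potency means the concentration at half of the fitted maximal effect; nearly all actives have a fitted effect of over 60% in size; plate controls were DMSO for no effect and NEM full inhibition control for full effect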
# Target sequence (O75604 whole entry, looked up): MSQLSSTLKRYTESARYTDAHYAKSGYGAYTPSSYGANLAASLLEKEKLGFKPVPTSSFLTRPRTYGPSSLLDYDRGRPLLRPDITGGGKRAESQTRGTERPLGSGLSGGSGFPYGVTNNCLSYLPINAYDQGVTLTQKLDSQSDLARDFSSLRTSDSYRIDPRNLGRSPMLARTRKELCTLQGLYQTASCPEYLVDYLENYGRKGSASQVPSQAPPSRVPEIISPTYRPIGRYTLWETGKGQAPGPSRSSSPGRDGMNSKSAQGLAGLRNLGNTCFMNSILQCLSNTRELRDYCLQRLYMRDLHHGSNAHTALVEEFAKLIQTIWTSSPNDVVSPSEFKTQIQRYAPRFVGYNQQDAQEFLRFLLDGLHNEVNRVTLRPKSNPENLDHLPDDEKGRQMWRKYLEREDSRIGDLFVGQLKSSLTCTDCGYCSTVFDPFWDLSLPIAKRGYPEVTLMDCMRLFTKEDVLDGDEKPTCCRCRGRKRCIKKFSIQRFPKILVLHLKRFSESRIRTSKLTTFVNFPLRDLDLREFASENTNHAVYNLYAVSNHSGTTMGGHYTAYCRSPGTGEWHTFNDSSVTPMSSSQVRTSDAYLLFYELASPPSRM
#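 USP2 core (20nM final) preincubated 30 min RT with compound, then Ub-PLA2 20nM and NBD C6-HPC 20uM final added; buffer 20mM Tris-HCl pH 8.0, 2mM CaCl2. Fluorescence Ex 460/Em 535 read at 0 and 2.5 h; normalized to NEM.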
# CRE Fsk mod = alters forskolin-stimulated CRE reporter signaling in CHO cells | CHO CRE-bla reporter (cAMP response element driving beta-lactamase), forskolin EC10, beta-lactamase ratio | Potency, µM (highest dose often 38.2 µM), inactives show at the highest dose activity change, negative = inhibition, actives largely listed as activators | 2.5% of 71,000 active | AID 662; active means well fitted activation curve with a large enough effect in the signal ratio, with a control signal flat, not every such curve was filed as active; inconclusive means small, poorly fitted or top-dose-only effect, or effect the other way, or a change in a side signal; the % refers to the signal ratio; further: potency means the concentration at half of the fitted maximal effect; % of control where 0% means no effect
#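 Modulation of forskolin-driven signalling is measured in CHO cells carrying a CRE-controlled beta-lactamase reporter. Cells are stimulated with EC10 NKH 477 in the presence of titrated compound for 3 h at 37 °C, then loaded with CCF4 for 2 h at room temperature.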
# BRCT PPI green = BRCA1 BRCT-phosphoprotein interaction inhibition | Potency, µM (highest dose often 76.9 µM), for the others: top-dose activity change, negative = inhibition, usual class: inhibitors | BRCA1 BRCT-phosphopeptide binding, green fluorescence polarization | 0.05% of 75,000 active | AID 875 | P38398;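 further: potency means the concentration at half of the fitted maximal effect; plate controls were peptide without protein for full effect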
#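 Compounds were incubated for 12 min at room temperature with a complex of 100 nM fluorescein-tagged pBACH1 decapeptide and 250 nM His-tagged BRCT protein. Buffer was phosphate pH 7.3 with EDTA, DTT and Tween 20. Disruption of binding lowers the polarization signal.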
# HBB splice mod = alters splicing of the hemoglobin beta chain; HBB splicing reporter cell assay, activation; EGFP reporter with mutant IVS2-654 intron; response scale: normalised to 500 nM splice-correcting PNA; Potency, µM (highest dose often 46.1 µM), inactives show top-dose activation, usual class: activators; 0.06% of 65,000 active; further: potency means the concentration at half of the fitted maximal effect; 0% is about no effect
#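 HeLa cells stably expressing EGFP interrupted by mutant beta-globin intron 2 (IVS2-654), 500/well in 2% FCS. Treated with compound for 2 days at 37C. Splicing correction scored as total well GFP intensity (488 nm excitation, 500-520 nm emission); 500 nM antisense PNA served as control.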
# GFP derepression = epigenetic modulators derepressing GFP locus in mouse cells; AID 597; Potency, µM (highest dose often 46.1 µM), inactives show at the top dose GFP derepression (activation); 0.09% of 68,000 active; mouse C127i GFP locus derepression, cytometry, 30 h; further: % of control where 0% means no effect
#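 Murine C127i mammary cells carrying a silenced, stably integrated CMV-driven GFP reporter were treated with compound for 30 hours at 37 C. After PBS washes, GFP-positive cells were counted by laser-scanning microplate cytometry.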
# ALOX15 inhib = inhibitors of human 15-lipoxygenase (ALOX15). P16050. purified 15hLO-1, xylenol orange hydroperoxide absorbance. Potency, µM (titrated, usually from 57.1 µM), for the others: at the top dose activity change, negative = inhibition, usual class: inhibitors. 1.4% of 74,000 active. AID 887; further: potency means the concentration at half of the fitted maximal effect; on the % scale 0 is the no-effect control and ±100 the full control effect; nearly all actives have a fitted effect of over 55% in size
#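 Purified human 15hLO-1 (40 nM final) in 25 mM Hepes pH 7.5, 0.01% Triton X-100 was preincubated with compound 15 min at room temperature, then reacted 6 min with 50 uM arachidonic acid; hydroperoxide detected by Fe-XO, 573/405 nm absorbance ratio.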
# Pol III holo inh = blocks replication by bacterial DNA polymerase III holoenzyme; AID 603; Potency, µM (top dose mostly 57.1 µM), without a hit: top-dose activity change, negative = inhibition; reconstituted DNA polymerase III holoenzyme replication, biochemical; 0.25% of 71,000 active; further: potency means the concentration at half of the fitted maximal effect; on the % scale 0 is the no-effect control and ±100 the full control effect
#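 Reconstituted *E. coli* holoenzyme (0.35 nM Pol III, 1 nM beta, 154 nM SSB, 2 nM primase) was preincubated with compound for 15 min at RT. Synthesis on 1.4 nM ssM13Gori ran 35 min, then was stopped with PicoGreen/EDTA and read as dsDNA fluorescence.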
# UbGFP stabilizer = inhibits proteasome, raising ubiquitin-GFP reporter fluorescence; Ubiquitin-GFP reporter cells, proteasome inhibition, GFP fluorescence; response scale: untreated = 0%, 10 µM MG-132 = 100%; Potency, µM (titrated, usually from 45.9 µM), for inactives: at the top dose activation (GFP accumulation), usual class: activators; 67,000 tested, under 10 active; active means well fitted activation curve with a large enough effect, not every such curve was filed as active; inconclusive means small, poorly fitted or top-dose-only effect, or another doubt; inactive means no such curve, though single readings can be large or run the other way; further: potency means the concentration at half of the fitted maximal effect
#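 GFP accumulation read-out: laser plate cytometry counting ubiquitin(G76V)-GFP-expressing U2OS cells after 4 hr compound exposure at 37 °C. Titrations spanned 46 uM to 2.9 nM; 0% = basal, 100% = 10 uM MG-132; concentration-response curves fitted.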
# HADH2 inh = blocks human hydroxyacyl-CoA dehydrogenase type II; Potency, µM (doses to about 57.1 µM), for the others: at the highest dose activity change, negative = inhibition, hits mostly inhibitors; 3.4% of 73,000 active; recombinant HADH2, NADH fluorescence, beta-hydroxybutyryl-CoA; Q99714; further: potency means the concentration at half of the fitted maximal effect; on the % scale 0 is the no-effect control and ±100 the full control effect; nearly all actives have a fitted effect of over 60% in size; many of its hits are not listed in these tables
# Target sequence (Q99714 whole entry, looked up, one chain of several): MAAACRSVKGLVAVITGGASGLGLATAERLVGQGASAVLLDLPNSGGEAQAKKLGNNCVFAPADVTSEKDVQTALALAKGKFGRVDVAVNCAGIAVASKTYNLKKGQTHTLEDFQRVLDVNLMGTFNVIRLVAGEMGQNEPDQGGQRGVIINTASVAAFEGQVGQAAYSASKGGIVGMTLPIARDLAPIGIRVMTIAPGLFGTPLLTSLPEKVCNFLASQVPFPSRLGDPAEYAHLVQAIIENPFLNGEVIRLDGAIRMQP
#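 Read-out: 360 nm excitation, 450 nm emission, kinetic over 4 min. Conditions: His-tagged human HADH2 20 nM, pH 9.0 Tris with Tween-20, 1 mM NAD+, 90 uM beta-hydroxybutyryl-CoA.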
# Active calls of the source: *; ? = inconclusive; / = not tested or not shown; [ ] = remark or other dose. Unless noted, the call rests on the fitted dose curve; in most records, active means well fitted curve in the direction sought with a large enough effect; inconclusive means small, poorly fitted or top-dose-only effect, or another doubt; inactive means no such curve, though single readings can be large; an effect the other way counts as inactive or inconclusive.
molecule	HADH2 inh	Pol III holo inh	HBB splice mod	CRE Fsk mod	ALOX15 inhib	UbGFP stabilizer	GFP derepression	BRCT inh red	USP2a inh	BRCT PPI green
Nc1nc(CN2CCN(c3ccccn3)CC2)nc(Nc2ccc(F)cc2)n1	8%	-13%	-3.2%[57.5 µM]	-5%	-13%	-6%	0%	0.8%	8%	-0.8%
OCC12COC(c3ccccc3)N1C(c1ccccc1)OC2 (stereo not given)	4%	1%	/	7%	3%	3%	-2%	-2.4%	3%	-0.8%
O=C1c2ccccc2-c2ccc(N(Cc3ccc(Br)cc3)Cc3ccc(Br)cc3)cc21	2%[11.4 µM]	-6%[11.4 µM]	-0.6%[9.22 µM]	0%[7.6 µM]	2%[11.4 µM]	5%[9.17 µM]	2%[9.22 µM]	0.3%[15.4 µM]	/	-1.3%[15.4 µM]
CCc1cc(=O)oc2cc(OCc3nn[nH]n3)ccc12	25µM*	-12%	1.6%[0.369 µM]	-12%	9%	/	-2%	-1.7%	-3%	-1.7%
COc1cccc(-c2cc(C(F)(F)F)nc(N3CCC(C)CC3)n2)c1	-8%	-9%	-1.7%	21%	-7%	-10%	2%	1.2%	-2%	-0.2%
CCc1sc(C(=O)NC2CCN(C)CC2)cc1Br	11%	-4%	3.6%	0%	-5%	4%	0%	-1.2%	-1%	-0.2%
CCOc1ccccc1-n1c(SCC(=O)NC(C)CC)nnc1-c1ccoc1C (stereo not given)	-5%	-2%	-2.1%	?	112%[activator]	-3%	-1%	0.1%	11%	-2.5%
CCCCn1nnnc1NCc1cc(OC)c(OC)cc1OC	-5%	-8%	-1.4%	6%	1%	-3%	-2%	-0.3%	-2%	-1.5%
CCCn1c(=O)c2ccccc2n2c(SCCOc3ccccc3F)nnc12	6%	-6%	-1.8%	?	2%	5%	1%	-2.1%	9%	1.8%
CCN1CCCC1CNC(=O)c1ccc2c(=O)n(CCOC)c(=O)[nH]c2c1 (stereo not given)	?	-2%	-0.4%	1%	0%	2%	6%	-1.0%	6%	-1.7%
CCCCN(C)S(=O)(=O)c1ccc(C(=O)Nc2nnc(-c3cccs3)o2)cc1	-13%	-4%	-0.7%	?	58%[activator]	-2%	4%	1.2%	58%[activator]	-0.6%
COc1ccc2c(c1)OC(O)(C(F)F)CC2=O (stereo not given)	-10%	-6%	-1.2%[9.22 µM]	-6%	7%	7%	0%	-1.2%	-5%	-0.3%
CN1CCN(C(=O)Nc2cccc3ccccc23)CC1	-20%	-2%	-0.6%	-4%	11%	1%	0%	-0.7%	-4%	0.0%
CCOC(=O)C(CCSC)NC(=O)CN (stereo not given)	23%	-4%	/	5%	3%	-4%	-2%	-0.4%	-2%	-1.4%
O=CN1CC(=O)N(c2ccccc2)c2c([nH]c3ccccc23)C1	-5%	3%	-0.6%	?	3%	0%	0%	-3.4%	6%	-0.1%
C=CCSc1nnc2c(n1)[nH]c1c(C)cccc12	-4%	-6%	-0.4%[9.22 µM]	?	-28%	-10%	0%	-1.5%	11%	-3.8%
C=CCn1c(=O)[nH]c2cc(C(=O)N3CCN(c4cccc(Cl)c4)CC3)ccc2c1=O	-1%	-2%	-1.0%	?	-19%	-1%	0%	0.0%	43%[activator]	-1.1%
O=C(C1CCN(S(=O)(=O)c2cnc[nH]2)CC1)N1CCN(c2ncccn2)CC1	2%	1%	-0.2%	-16%	4%	1%	0%	-1.8%	0%	-2.9%
COCCn1c(=O)[nH]c2cc(C(=O)N3CCN(c4ccccc4OC)CC3)ccc2c1=O	0%	-1%	-0.9%	1%	7%	12%	0%	-3.7%	11%	-0.6%
CC(=O)c1ccc(N2CCN(C(=O)c3ccc4c(=O)n(-c5ccccc5)c(=O)[nH]c4c3)CC2)cc1	-23%	6%	0.6%	6%	-2%	-2%	1%	0.2%	32%[activator]	-0.7%

# Record cards (already shown). Screens in order: HADH2 inh	Pol III holo inh	HBB splice mod	CRE Fsk mod	ALOX15 inhib	UbGFP stabilizer	GFP derepression	BRCT inh red	USP2a inh	BRCT PPI green
# CCCn1c(=O)c2ccccc2n2c(SCCOc3ccccc3F)nnc12 is listed with 6%	-6%	-1.8%	?	2%	5%	1%	-2.1%	9%	1.8%
# CCCCn1nnnc1NCc1cc(OC)c(OC)cc1OC is listed with -5%	-8%	-1.4%	6%	1%	-3%	-2%	-0.3%	-2%	-1.5%

# The list goes on:
molecule	HADH2 inh	Pol III holo inh	HBB splice mod	CRE Fsk mod	ALOX15 inhib	UbGFP stabilizer	GFP derepression	BRCT inh red	USP2a inh	BRCT PPI green
c1cn(CCCNC2=NCCCCC2)cn1	-7%	0%	0.3%[57.5 µM]	1%	33%[activator]	0%	1%	0.6%	1%	-0.3%
COc1ccccc1CN1CC(C(=O)NCc2cccnc2)CC1=O (stereo not given)	-1%	-5%	-1.6%	-3%	7%	-15%	-2%	0.9%	11%	-0.7%
N#Cc1c2n(c(=S)n(-c3ccccn3)c1=O)CCCCC2	-16%	-7%	0.1%	-8%	-12%	4%	2%	0.7%	8%	-0.2%
COc1ccc(C2CC(=O)NC3=C2C(=O)CCC3)cc1Cl (stereo not given)	-10%	-6%	-3.4%	5%	9%	-5%	1%	0.2%	2%	-1.3%
N#CC(C(=O)OC1CCCCC1)c1nc2ccccc2nc1N1CCCCC1 (stereo not given)	12%	1%	1.2%[57.5 µM]	?	4%	5%	2%	0.6%	-3%	1.3%
COc1ccc(CCNC(=O)C2CCN(S(=O)(=O)c3cnc[nH]3)CC2)cc1OC	4%	1%	-6.1%	-4%	4%	-8%	0%	1.1%	6%	-2.1%
CSc1nc(C)c2c(n1)OC(CN1C(=O)c3ccccc3C1=O)C2 (stereo not given)	-5%	4%	-0.5%	1%	8%	-12%	0%	-0.8%	5%	-0.7%
COCCn1c(=O)[nH]c2cc(C(=O)NCCN3CCN(c4cccc(Cl)c4)CC3)ccc2c1=O	?	-9%	0.7%	-2%	6%	3%	-2%	1.5%	19%	-0.8%
CC(C)NC[C@@H](O)c1ccc(O)c2ncccc12	1%[11.4 µM]	-4%[11.4 µM]	0.5%[9.22 µM]	10%[7.6 µM]	24%[11.4 µM]	-6%[9.17 µM]	-3%[9.22 µM]	-0.3%[15.4 µM]	/	-0.8%[15.4 µM]
CCOC(=O)C(C(=O)OCC)C(C)C#CCN1CCCCC1 (stereo not given)	7%	0%	-0.9%	-2%	5%	4%	-2%	-0.3%	4%	-3.9%
C/C=C/c1ccc(Oc2nnnn2-c2ccc(C(N)=O)cc2)c(OC)c1	18%	-2%	-1.4%	1%	2%	3%	2%	0.3%	23%	-1.0%
O=C(COc1ccc(Cl)cc1)Nc1nnc(-c2ccc3c(c2)CCCC3)o1	11%	-5%	0.6%	4%	6%	6%	/	-3.2%	/	-1.7%
O=C1CNC(=O)/C1=C\N1CCN(C(c2ccccc2)c2ccccc2)CC1	?	-4%	2.3%	9%	8%	9%	-2%	-1.2%	19%	0.4%
O=C1CC(c2ccccc2)n2nc(NC(=O)c3cccnc3)nc2N1 (stereo not given)	-3%	-2%	-2.3%[57.5 µM]	2%	2%	-4%	0%	1.4%	-6%	-0.6%
OCc1ccccc1OCCOc1ccc(Cl)c2cccnc12	0%	-8%	-0.4%	?	-15%	-6%	-3%	-3.0%	0%	5.0%
CCOC(=O)c1c(N)n(CCOC(=O)c2cccs2)c2nc3ccccc3nc12	32µM*	-8%	-2.8%[57.5 µM]	10µM*	?	2%	5%	1.6%	38%[activator]	2.9%
O=C(CSc1nnc2c(Cl)cc(C(F)(F)F)cn12)Nc1ccc2c(c1)OCO2	8%	-8%	-1.7%	?	7%	-4%	2%	-2.7%	15%	-4.9%
O=C(NCc1ccccn1)C1CCN(S(=O)(=O)N2CCCCC2)CC1	7%	0%	-3.4%[57.5 µM]	15%	8%	-4%	-2%	1.9%	-9%	-1.0%
CCOC(=O)CC(/C(C)=N\O)c1ccccc1 (stereo not given)	8%	0%	-3.8%[57.5 µM]	-4%	14%	0%	2%	-0.7%	-1%	0.4%

# Source: PubChem (National Center for Advancing Translational Sciences (NCATS))

# An excerpt; the hit share may differ from the screen's.
